Source: PubChem
Tgondii IFNg = T. gondii growth inhibition under IFN-gamma. activity change, negative = inhibition, %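 (about 20 µM by stock and volumes)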. Toxoplasma gondii growth in IFN-gamma-treated host cells; active compounds read low; reference of the scale not given here. 69,000 tested, 3.8% active;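 active means below -70%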;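 further: host cells are HeLa cells infected with Toxoplasma gondii; parasite growth read as luciferase light; one replicate is shown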
The depositor's hits bear a star; i = inactive; & = joins results of further samples; ! = repeats disagree.

The opening 5 entries as a preview:
SMILES | Tgondii IFNg
CCO[C@@H]1C[C@@H]2CN(C(=O)c3cccn3C)CCN2C1 | -4.9
C/C=C/c1ccc([C@H]2[C@@H](CO)N3C(=O)CN(C(=O)Nc4ccc(F)cc4)C[C@H]23)cc1 | 13.9
CN(C)S(=O)(=O)c1ccc2c(c1)cc(C(=O)NC1CCCC1)n2Cc1ccncc1 | 133.0
CCCSc1nnc2c(n1)OC(C)=Nc1ccccc1-2 | -44.1
CC(C)c1cc(C(=O)NCCS(=O)(=O)N(C)C)on1 | 17.5

The whole of this part, repeating the preview:
SMILES | Tgondii IFNg
CCO[C@@H]1C[C@@H]2CN(C(=O)c3cccn3C)CCN2C1 | -4.9
C/C=C/c1ccc([C@H]2[C@@H](CO)N3C(=O)CN(C(=O)Nc4ccc(F)cc4)C[C@H]23)cc1 | 13.9
CN(C)S(=O)(=O)c1ccc2c(c1)cc(C(=O)NC1CCCC1)n2Cc1ccncc1 | 133.0
CCCSc1nnc2c(n1)OC(C)=Nc1ccccc1-2 | -44.1
CC(C)c1cc(C(=O)NCCS(=O)(=O)N(C)C)on1 | 17.5
N#Cc1cccc2cccc(Sc3ccccc3)c12 | -1.0
CCc1ncnc2c1CCN(C(=O)c1ccc3ncccc3c1)CC2 | -6.4
Cc1cc(C)n(-c2ccc(C(=O)O)cn2)n1 | -43.5
CCCn1ncc(C(=O)NCc2cn3c(n2)SCC3)c1C | -0.7
O=C(NCc1ccc(F)cc1F)c1c(O)c2cccnc2n(-c2cccc(F)c2)c1=O | 82.8
Cc1ccc(Nc2ncccc2C(=O)O)cc1C | 35.5
CN(C[C@H]1N[C@@H](CO)[C@@H]1c1ccccc1)C(=O)c1ccccn1 | -12.9
Cc1cccc(C(=O)N2C[C@@H]3COC[C@@H](Cc4nc(C)no4)[C@H]3C2)n1 | 2.3
CCOC(=O)N1CCN2C(=O)c3ccccc3[C@H]2C1 | 40.9
Cc1nc(Nc2ccc(F)cn2)sc1C(=O)N1CCC(C(N)=O)(N2CCCCC2)CC1 | 4.2

Pulled by compound from the list above (5):
SMILES | Tgondii IFNg
CC(C)c1cc(C(=O)NCCS(=O)(=O)N(C)C)on1 | 17.5
Cc1ccc(Nc2ncccc2C(=O)O)cc1C | 35.5
CCCSc1nnc2c(n1)OC(C)=Nc1ccccc1-2 | -44.1
CCCn1ncc(C(=O)NCc2cn3c(n2)SCC3)c1C | -0.7
O=C(NCc1ccc(F)cc1F)c1c(O)c2cccnc2n(-c2cccc(F)c2)c1=O | 82.8

Additional results
SMILES | Tgondii IFNg
Cc1nc(N)nc(C)c1CC(=O)N1CCC2(CCOCC2)CC1 | -82.2*
CC(C)Cc1nc(CN(C)Cc2ccc3c(c2)OCCO3)no1 | 2.9
CC(=O)Nc1cccc(-c2cc(C(F)(F)F)cc3[nH]cnc23)c1 | -77.3*
c1cc(-c2csnn2)ccc1-c1csnn1 | 69.1
COC(=O)CN1C(=O)N(CCc2ccccc2)C2(CCN(Cc3ccncc3)CC2)C1=O | -37.6
CC(C)(CO)N(Cc1ccccn1)C(=O)c1cc2ccccc2s1 | 3.7
Cc1noc(C)c1NC(=O)N(C)C[C@@H]1OCc2cn(nn2)CCCC(=O)N([C@H](C)CO)C[C@@H]1C | 71.4
CC1CCN(S(=O)(=O)c2ccc3c(c2)CCC(=O)N3CC(=O)Nc2cccc(Cl)c2)CC1 | -87.0*
Cc1nc(-c2cccc(F)c2)sc1CCNC(=O)c1ccc(OC(C)C)cc1 | -46.6
CCOC(=O)c1ccc(N2C(=O)C(CC(=O)NC)N(CCc3ccc(OC)c(OC)c3)C2=S)cc1 (stereo unspecified) | -33.6
Cc1cccc(C(=O)N2Cc3cnn(C)c3C(COCC3CC3)C2)n1 (stereo unspecified) | -5.7
CO[C@@H]1CC[C@@H]2CCN(C)C(=O)[C@@H](C)N(C)C(=O)c3cccc(C#N)c3OC[C@H]1O2 | 57.4
Cn1cc(N2CC3(COCCN(C(=O)C4CC4)C3)OCC2=O)cn1 (stereo unspecified) | -5.1
O=c1[nH]c2ccccc2cc1CN(CC1CCCO1)S(=O)(=O)c1ccccc1 (stereo unspecified) | 0.1
Cc1nc(C(F)(F)F)ccc1C(=O)N1C=CC(C(F)(F)F)=NCC1 | 31.8
CCO[C@H]1COC[C@@H]1NC(=O)c1cnc2ccccc2c1 | -7.2
CC(C)(C)c1cnnn1-c1ccc(S(N)(=O)=O)cc1 | -16.9
COc1cc(C2C(C(=O)c3ccc(C)o3)=C(O)C(=O)N2Cc2cccnc2)ccc1O (stereo unspecified) | 18.6
O=C(c1cnccn1)N1CC[C@@H](c2ccc3ccccc3c2)[C@H](O)C1 | -0.7
Cc1cccc(-c2nc(Cn3nnc(C(=O)NCc4ccc5c(c4)OCO5)c3C)c(C)o2)c1 | -95.2*
N#C[C@@H]1[C@H](c2ccccc2-c2cccc(F)c2)[C@@H](CO)N1S(=O)(=O)c1cccc(F)c1 | -24.8
CCC1COC2(CCCN(C(=O)Cc3cccnc3)C2)C1 (stereo unspecified) | 34.4
Cc1ccccc1CCNC(=O)c1cc2cc(S(=O)(=O)N(C)C)ccc2n1Cc1ccncc1 | -46.2
Cc1noc(C)c1NC(=O)N1C[C@@H](O)COC[C@@H]2O[C@@H](CC(=O)N3CCc4ccccc4C3)CC[C@H]21 | -33.7
C=CCn1c2cc(C)sc2c2cnn(CC(=O)NC(C)C)c(=O)c21 | 25.3
O=C(Cn1cc(C(=O)C(=O)N2CCCC2)c2ccccc21)NCc1ccc2c(c1)OCCCO2 | 6.2
CC1COC2(CCCN(C(=O)c3ccc4ccccc4n3)C2)C1 (stereo unspecified) | 5.1
CC(C)c1nccc(CN2CCN(C)C(C(=O)O)C2)n1 (stereo unspecified) | 9.4
O=C(Nc1ccc(NC(=O)c2ccco2)cc1)c1ccc2c(c1)OCO2 | -8.8
CC1=NN(c2ccc(-c3csnn3)cc2)C(=O)C1 | 222.0
Cc1ncsc1CCN(C)C1CCCNC1 (stereo unspecified) | 7.0
Cc1noc(C)c1C(=O)NC(Cc1cc(=O)[nH]c(C2CCC2)n1)c1ccc(F)cc1 (stereo unspecified) | 5.0
Cc1cc2cc(NC(=O)CCC(=O)Nc3nnc(C)s3)cc(Cl)c2o1 | 13.0
C[C@@H]1CN([C@H](C)CO)C(=O)c2cc(NS(=O)(=O)c3cn(C)cn3)ccc2O[C@H]1CN(C)S(=O)(=O)c1ccc(F)cc1 | -18.2
Cn1ccc2c(-c3cc(N)nc(N4CCOCC4)n3)ccnc21 | -16.9
CN(Cc1ccnc2ccccc12)C(=O)c1cccc(Cn2cccn2)c1 | -18.8
Cc1cc2nc(C)c(CCC(=O)O)c(C)n2n1 | -64.1
COc1ccc2c3c([nH]c2c1)[C@@H](CO)N(C(=O)C1CCOCC1)CC31CCN(S(C)(=O)=O)CC1 | 15.9
CCc1ccccc1NC(=O)Cn1ncc2c(N3CCOCC3)ncnc21 | 184.3
Cc1cc(C)n(CCSCC(=O)O)n1 | 0.7
COc1ccc(OC)c(CNC(=O)Cn2ncc3c(N4CCCCC4)ncnc32)c1 | -23.9
Cc1cccc(CN2C[C@@H]3c4nc(N5CCCC(C)C5)ncc4CS(=O)(=O)[C@H]3C2)c1 (stereo partly specified) | -17.6
O=C(NCc1cccc(F)c1)N1CC[C@@H](O)[C@@H]1Cc1cccnc1 | 0.3
C/C(=C\COc1cc(=O)[nH]c2ccccc12)CCC1OC(C)(C)OC1(C)C (stereo unspecified) | -13.0
O=C(CSc1cccs1)Nc1ccc(F)c(Cl)c1 | -63.2
CCOc1ccc(C(NC(=O)c2ccc(C)cc2)n2nnc3ccccc32)cc1 (stereo unspecified) | -8.2
CNCCCC1c2ccccc2C=Cc2ccccc21 | -80.7*!
Cc1cccc(-c2nc(CCNC(=O)c3cccc4ccccc34)cs2)c1 | i
O=C(O)C1(Cc2cc(-c3ccccc3)no2)CCOCC1 | 38.9
COc1ccc(-n2c(=O)n(Cc3nc(-c4cccc(C)c4)oc3C)c(=O)c3cccnc32)cc1 | 7.3
Cc1c(NC2=NC3(CCCCC3)Cc3ccccc32)c(=O)n(-c2ccccc2)n1C | -51.6
Cc1ccc2[nH]cc(CCNC(=O)c3ccc(N4CCCC4)c(S(=O)(=O)N4CCCC4)c3)c2c1 | 38.2
c1csc(-c2nnc3n2C2(CCCC2)Cc2ccccc2-3)c1 | -97.5*
O=C(O)[C@@H]1[C@@H](CO)[C@@H]2Cn3c(ccc(-c4ccccc4F)c3=O)[C@@H]2N1Cc1ccccc1 | 4.3
COc1ccc(OC)c(CN2CCNC(=O)C2Cc2ccc(-c3cccnc3)cc2)c1 (stereo unspecified) | 27.1
COc1ccc2c(c1)NC1(CCN(S(=O)(=O)c3ccccc3C)CC1)c1cccn1-2 | -3.9
CN(C)[C@@H]1CCN(C2CCOCC2)[C@H]1Cc1cnn(C)c1 | 85.2
O=c1[nH]c2ccccc2nc1/C=C/c1cccs1 | -8.1
Cc1ccc2c(c1C)-n1cccc1C1(CCN(S(=O)(=O)c3c(C)nn(C)c3C)CC1)N2 | 12.7
CC1CCN(C(=O)c2cc(=O)n(CC(=O)Nc3ccccc3C(F)(F)F)c3ccccc23)CC1 | -30.4
More structures follow.
SMILES | Tgondii IFNg
Cc1noc(C)c1NC(=O)N(C)C[C@H]1OCc2cnnn2CCCC(=O)N([C@@H](C)CO)C[C@H]1C | 249.8
O=C(O)c1cc2c(nc1N1CC(c3cccnc3)C1)CCC2 | -2.0
COC(=O)C1CCN(S(=O)(=O)c2cc3c4c(c2)CCC(=O)N4CCC3)CC1 | 0.9
CN1CCN(c2ccnc3ccccc23)CC1C(=O)O (stereo unspecified) | 4.3
Cc1ccc(C)c(-c2coc(-c3ccc(NC(=O)Nc4ccc(F)cc4F)cc3)n2)c1 | 10.8
O=S(=O)(c1cccs1)N1CCCCN2[C@@H](CO)[C@@H](c3ccc(/C=C/c4ccccc4)cc3)[C@@H]2C1 | -40.9
COc1cc(CN2CCC(CNS(C)(=O)=O)C2)cc(OC)c1 (stereo unspecified) | -3.4
COc1ccccc1C1CN(CCNC(=O)c2ccc3c(c2)OCCO3)Cc2ccccc2O1 (stereo unspecified) | -41.0
COC(=O)c1ccc(C(=O)OC)c(NC(=O)N2CCC3(CC2)Nc2cc(C)ccc2-n2cccc23)c1 | -14.9
COc1ccc2c3c(n(C)c2c1)[C@H](CO)NCC31CN(C(=O)Nc2ccccc2F)C1 | i
O=C(N1CCCC1)N1CCC2(CC(=O)N(c3ccc(F)cc3)C2)C1 (stereo unspecified) | 66.5
COc1cc(OC)cc(OC)c1 | 16.0
CN1CCN(CCC2CCCCN2C(=O)c2coc3ccccc23)CC1 (stereo unspecified) | 2.9
CN1c2ccc(Br)cc2[C@H]2[C@H](CCN2C(=O)Nc2cccc(F)c2)[C@H]1CO | 15.1
CC(C)(C)c1nc(CN2C[C@@H]3[C@H](C2)[C@H]2CC[C@@H]3O2)no1 | 9.7
COCC(=O)N1[C@H](CO)[C@@H](c2ccc(-c3ccccc3OC)cc2)C12CN(C(C)=O)C2 | 25.3
CC1Cc2cc(C(=O)N3CCn4nc(C(=O)NCCN(C)C)cc4C3)ccc2O1 (stereo unspecified) | 12.1
CC(CNC(=O)c1cc(=O)c2ccccc2[nH]1)Oc1cccnc1 (stereo unspecified) | 0.0
Cc1nc(CN2CC[C@@H]3C[C@H](C(=O)NC(C)C)O[C@@H]3C2)cs1 | 4.3
CCS(=O)(=O)Nc1ccc2c(c1)C(=O)N(C)[C@H]1CC[C@@H](CC(=O)N3CCN(C)CC3)O[C@@H]1CO2 | 1.9
NC(=O)CN1CCCC(c2nccnc2Oc2ccccc2)C1 (stereo unspecified) | -0.9
O=C(Cc1cccnc1)N1CCC(Cc2n[nH]c(=O)n2-c2ccccc2)CC1 | -0.9
CCC(C)Nc1nc(NC)nc(NC(C)CC)n1 (stereo unspecified) | 12.9
Cc1ccc(Nc2nc(C(=O)Nc3ccc(C)c(F)c3)nc3ccccc23)cc1 | 37.9
CC[C@@H]1N(Cc2nccs2)CCC[C@@]12CCC(=O)N2CCOC | 0.4
C[C@H](NC(=O)NCCc1ccccc1)C(=O)O | -8.6
Cn1c(N2CCOCC2)cc(=O)n(C)c1=O | -10.4
COc1ccc(S(=O)(=O)Nc2ccc3c(c2)CC(=O)N([C@H](C)CO)C[C@H](C)[C@H](CN(C)Cc2ccc(C(=O)Nc4ccccc4N)cc2)O3)cc1 | 12.1
O=C(NCc1ccccc1)c1nc2c(o1)CN(Cc1ccccc1)C2 | -6.5
Cc1ccc(C(=O)N2C[C@H](OCc3ccccn3)[C@@H]3COC[C@@H]32)o1 | -3.1
Cc1nnc(CNC(=O)c2ccccc2NCc2sccc2C)o1 | 6.2
CCN(CC)c1ccc2ccc(C(=O)NCCCOC)cn12 | -4.2
CCc1ccc(NC(=O)c2c(O)c3cccnc3n(-c3cccc(F)c3)c2=O)cc1 | 42.6
S=C(NCCSc1ccccn1)Nc1ccccc1 | 63.7
O=C(c1ccc(F)cc1)C1CCN(CCn2c(=S)[nH]c3ccccc3c2=O)CC1 | -30.9&-15.5
O=C(NCCCNC(=O)c1ccco1)c1cccnc1 | 96.7
Cc1cc(C)n(Cc2cc(C(=O)N3CCN(c4ccccc4)C(=O)C3)n[nH]2)n1 | 26.6
O=C(O[C@@H]1C[C@H]2C(=O)N[C@H](Cc3ccccc3)C(=O)N2C1)c1ccccc1 | 4.7
O=C(O)c1nn(CC2CC2)c2c1CN(C(=O)c1cccc3cccnc13)CC2 | -1.7
COc1ccc(CNC(=O)c2nc(N3CCOCC3)c3ccccc3n2)cc1 | -4.2
COc1nc2c(cc1CN1CCCC1c1ccccn1)C(=O)N(C(C)C)C2 (stereo unspecified) | -12.0
O=S(=O)(c1ccc(Cl)c(Cl)c1)N1CCc2c([nH]c3ccccc23)C1C(F)(F)F (stereo unspecified) | -82.6*
c1ccc(COc2ccccc2CN(CCN2CCOCC2)Cc2cccnc2)nc1 | -25.6
FC(F)(F)c1cccc(-n2c(Cn3nnc4ccccc43)n[nH]c2=S)c1 | -44.1
Cc1ccc(CCC(=O)N2CCOC3(CNCCOC3)C2)cc1C (stereo unspecified) | 6.2

These rows are one share of the data. The share of hits here may be higher or lower than overall.
